Rce1 inh: yeast Rce1p protease inhibitors, primary screen, biochemical, fluorescence, cell-free homogeneous; yeast membranes, quenched prenylated peptide cleavage fluorescence; calls only; CAAX prenyl protease 2 (Saccharomyces cerevisiae (strain ATCC 204508 / S288c)), Q03530; hit rate 0.27% among 290,000;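 active = fall in fluorescence gain of 50% or more versus controls, with final raw signal at or below 3038400; inconclusive = same 50% fall but final raw signal above 3038400; inactive = fall in fluorescence gain under 50%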;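 note: plate controls were neutral control wells for no effect and wells lacking membranes for full effect; tested at 10 µM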
Target sequence (Q03530 whole entry, looked up): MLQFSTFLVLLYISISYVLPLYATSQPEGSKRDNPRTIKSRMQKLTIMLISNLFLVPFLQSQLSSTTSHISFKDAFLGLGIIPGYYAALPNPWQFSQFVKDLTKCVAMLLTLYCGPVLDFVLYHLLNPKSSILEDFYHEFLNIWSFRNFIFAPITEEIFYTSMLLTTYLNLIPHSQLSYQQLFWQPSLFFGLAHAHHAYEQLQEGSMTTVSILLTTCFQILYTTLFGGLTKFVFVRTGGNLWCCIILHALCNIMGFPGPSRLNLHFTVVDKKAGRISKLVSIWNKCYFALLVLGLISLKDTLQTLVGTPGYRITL
CSC inhib: cancer stem cell viability inhibitors, primary screen, luminescence; inhibition, % at 7.5 µM; hit rate 1.1% among 300,000; cancer stem cell-like cells viability;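 active = mean at 75% or more and at least half the replicates too; inconclusive = mean and replicates disagree; tested in HMLE shEcad cells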;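 note: 0% = median of negative and 100% = median of positive control wells; the first replicate is given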
PABP FP inh: PABP poly(A) RNA binding inhibitors, primary screen, biochemical, fluorescence polarization, uHTS; Polyadenylate-binding protein 1 (Homo sapiens), P11940; inhibition, % at 35 µM; hit rate 1% among 290,000; AID 2014, 2009;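 active = 50% or more with normal probe brightness, or confirmed in later tests; inconclusive = above 50% with abnormal brightness, or retests that disagree; inactive = below 50% or failed in later tests; about a fifth of its hits are not listed in these tables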;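 note: calls also rest on retests at 20 µM and on dose response follow-up; controls were probe without protein and protein plus probe with vehicle; some compounds called inactive have numbers as strong as hits; many hits fall short of the cut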
Target sequence (P11940 whole entry, looked up): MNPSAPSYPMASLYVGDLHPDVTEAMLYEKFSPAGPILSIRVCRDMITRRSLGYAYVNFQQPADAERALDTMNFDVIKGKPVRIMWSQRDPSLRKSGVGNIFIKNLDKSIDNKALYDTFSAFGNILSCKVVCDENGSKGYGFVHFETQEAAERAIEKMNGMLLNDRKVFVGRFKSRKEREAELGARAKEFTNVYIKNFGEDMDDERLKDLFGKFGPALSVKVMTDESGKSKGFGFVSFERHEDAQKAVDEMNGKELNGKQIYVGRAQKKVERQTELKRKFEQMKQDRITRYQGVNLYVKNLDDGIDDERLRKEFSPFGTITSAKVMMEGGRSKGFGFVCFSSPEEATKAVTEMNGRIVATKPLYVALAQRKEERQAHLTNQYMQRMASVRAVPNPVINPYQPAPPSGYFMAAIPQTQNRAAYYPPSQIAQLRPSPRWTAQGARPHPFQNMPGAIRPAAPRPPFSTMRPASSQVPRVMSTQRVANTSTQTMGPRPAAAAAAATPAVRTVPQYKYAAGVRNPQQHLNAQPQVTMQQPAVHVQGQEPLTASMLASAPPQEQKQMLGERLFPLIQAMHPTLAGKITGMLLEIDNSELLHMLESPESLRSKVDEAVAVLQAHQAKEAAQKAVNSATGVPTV
MT1-MMP act inh: blockers of MT1-MMP proenzyme processing, primary screen, HT1080 RFP-PRO-GFP cells, GFP/RFP fluorescence. Matrix metalloproteinase-14 (Homo sapiens), P50281. GFP/RFP ratio fluorescence, overnight; percent of plate control window, DMSO zero. GFP/RFP ratio change, % at 20 µM. hit rate 0.061% among 360,000. AID 651647, 2012;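 active = GFP/RFP ratio change of at least 30% with cell ATP level not reduced by more than half and red fluorescence within 50% of control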; note: strong numbers were not always called active
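Assay system: RFP-PRO-GFP reporter HT1080 cells; read-out basis: GFP/RFP fluorescence ratio; benchmarks: DMSO wells and RFP-L50D-GFP cells; doses: 20 µM single dose, 1% DMSO; schedule: overnight cell settling, then overnight compound exposure, 37 °C, 5% CO2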
Env fusion inh: inhibitors of HIV-1 Env-driven cell-cell fusion, primary screen, HeLa-JRFL effector, CEM21 target cells, luciferase | AID 651610, 2012 | hit rate 1.1% among 360,000 | inhibition, % at 12.3 µM;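 active = mean replicate inhibition score of at least 50 and every replicate individually at or above 50; inconclusive = only one of the two criteria met; inactive = mean below 50 and not all replicates reaching 50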;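 note: 0% = plate neutral controls and 100% = maraviroc near 300 nM; one replicate is shown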
UUG fidelity: modulators of yeast start codon fidelity, primary screen, whole organism, S. cerevisiae, single point, plate reader | S. cerevisiae UUG-firefly luciferase reporter, luminescence/redox ratio | activity score, % at 18.7 µM | hit rate 0.13% among 350,000;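 active = replicate mean at a twofold rise or more, about +100% in these data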;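 note: firefly luciferase made from a UUG start codon reports start codon fidelity; reporter light over untreated wells divided by growth signal over untreated wells; some hits fall short of that in this replicate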
eIF4H FP inh: human eIF4H binding inhibitors, primary screen, translation initiation inhibitor project, biochemical, uHTS, fluorescence polarization. AID 2012, 2009. hit rate 0.94% among 290,000. inhibition, % at 35 µM. eIF4H fluorescence polarization binding assay. Eukaryotic translation initiation factor 4H (Homo sapiens), Q15056;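 active = 50% or more with normal probe brightness, or confirmed in later tests; inconclusive = above 50% with abnormal brightness, or retests that disagree; inactive = below 50% or failed in later tests; about a fifth of its hits are not listed in these tables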;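 note: calls also rest on retests at 20 µM and on dose response follow-up; 0% = protein and probe with vehicle and 100% = probe without protein; strong numbers were not always called active; many hits fall short of the cut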
MT1-MMP act inh RFP: recorded beside MT1-MMP act inh, whose call it bears; RFP signal change, %; measured here: RFP expression control read;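 0 = vehicle wells; hits needed this value within 50% of zero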
The depositor's hits bear a star; i = inactive; ? = inconclusive; . = no result given. An excerpt; the hit share may differ from the screen's.

Results follow in this order: Rce1 inh	CSC inhib	PABP FP inh	MT1-MMP act inh	MT1-MMP act inh RFP	Env fusion inh	UUG fidelity	eIF4H FP inh
- CC1CCCN(C(=O)c2ccc([N+](=O)[O-])o2)C1 (stereo not given)
    i	-9	8	3	2	12	1	1
- NC(=O)CC[C@H](NC(=O)c1ccc(Cl)cc1)C(=O)NNC(=O)COc1cccc(Br)c1
    .	-12	.	1	1	-10	29	.
- CCC(C)(C)NC(=O)CN(C(=O)CCC(=O)Nc1nccs1)c1ccc2c(c1)OCO2
    i	42	2	3	1	-36	-5	2
- CC1(c2nnc(-c3ccc(F)cc3)o2)CC(c2cccc(Cl)c2)=NO1 (stereo not given)
    i	1	8	3	-4	0	-5	-6
- Cc1cc(-c2nc3ncccc3o2)ccc1NC(=S)NC(=O)c1ccco1
    .	-5	-19	7	4	-15	.	0
- Cc1ccnc(NC(=O)C2CCN(S(=O)(=O)c3cccc4nonc34)CC2)c1
    i	-5	-12	-11	-6	.	-5	2
- CCOc1ccc(OCC)c(NC(=O)CN2CCN(C(=O)c3ccco3)CC2)c1
    i	-3	-2	-2	-3	21	3	-6
- O=C1NC[C@H](Cc2ccc(O)cc2)N(C[C@H]2CCCN2C[C@H](Cc2ccc(O)cc2)N2C[C@H](Cc3ccc(O)cc3)N(CCc3ccccc3)C(=O)C2=O)C1=O
    .	.	.	4	8	13	4	.
- CCOC(=O)C1(C)CCN1C(=O)COc1ccc(C(C)(C)C)cc1 (stereo not given)
    .	.	.	7	0	7	-7	.
- Cc1ccccc1-c1cc(C(=O)NCc2ccco2)n(CC2CC(c3cccnc3)=NO2)n1 (stereo not given)
    .	21	.	-2	-7	-19	-12	.
- COc1ccccc1N1CCN(C(=O)c2ccc(CN3CCOCC3)cc2)CC1
    i	-5	2	-1	-2	-6	.	10
- COc1cccc(CNC(=O)C2CCCN(C(=O)c3ccc(Cl)cc3)C2)c1 (stereo not given)
    .	.	.	-1	-2	7	-21	.
- O=CN1c2ccccc2CSc2ccccc21
    i	.	.	2	1	-3	1	.
- Cc1cc(-c2n[nH]c(=S)n2/N=C/C=C/c2ccccc2)n[nH]1
    i	8	-18	3	6	22	.	1
- COc1cc(OC)c(OC)cc1/C=C1\SC(N2CCCCC2)=NC1=O
    i	-7	13	2	4	-10	-6	2
- CC1=C(C(=O)N2CCOCC2)C(c2ccc(C)cc2)NC(=S)N1 (stereo not given)
    i	6	-4	-16	3	-3	.	-2
- COc1ccc(S(=O)(=O)NCC(=O)NCc2cc(=O)n(C)c(=O)n2C)cc1
    i	-8	5	0	4	-3	-17	2
- Cc1c(C)n2c(SCC(=O)N3CC(C)OC(C)C3)nnc2[nH]c1=O (stereo not given)
    i	-3	.	4	3	-4	.	.
- O=C(c1cccc(S(=O)(=O)NCc2ccccc2)c1)N1CCCC(C(F)(F)F)C1 (stereo not given)
    i	14	.	-4	-6	.	2	.
- CCc1c(C(C)O)oc2ccc3c(C)cc(=O)oc3c12 (stereo not given)
    i	.	3	.	.	-104	.	-6
- O=C(COC(=O)c1ccc(Cl)c(S(=O)(=O)N2CCCCC2)c1)NC1CCCCC1
    .	.	.	-2	4	6	-11	.
- Cc1ccc(S(=O)(=O)N/N=C/c2ccc(OCC(=O)N3CCOCC3)cc2)cc1
    i	-8	-4	1	3	-9	.	5
- CC(C)c1nnc(NC(=O)CCN2C(=O)c3ccccc3C2=O)s1
    i	-10	6	3	-2	.	-8	-3
- CCc1nnc2sc(-c3ccc(NC(=O)c4ccco4)cc3)nn12
    i	-12	0	2	5	-7	-18	-3
- CC(C)OC(=O)c1c(N)sc2c1CCCC2
    .	8	.	3	-2	-7	-13	.
- CCCC1(C)C(C#N)C(=O)NC(=O)C1C#N (stereo not given)
    .	.	.	1	10	6	1	.
- COc1ccccc1N1CCN(c2cc(N3CCCC3)nc(C)n2)CC1
    i	-1	-1	1	0	.	-1	-5
- COc1cccc(C(=O)NNC(=O)C(=O)Nc2cccc3ccccc23)c1
    i	.	-5	7	9	1	-10	0
- CNc1cc(N2CCCCCC2)ccc1[N+](=O)[O-]
    i	0	1	11	-3	.	-14	-11
- Cc1c(NC(=O)c2ncn[nH]2)cccc1-c1nc2ccccc2s1
    i	31	8	-3	-1	-8	.	3

Reprinted from the part before: 2 entries; new compounds follow.
Results follow in this order: Rce1 inh	CSC inhib	PABP FP inh	MT1-MMP act inh	MT1-MMP act inh RFP	Env fusion inh	UUG fidelity	eIF4H FP inh
- CNc1cc(N2CCCCCC2)ccc1[N+](=O)[O-]
    i	0	1	11	-3	.	-14	-11
- Cc1c(NC(=O)c2ncn[nH]2)cccc1-c1nc2ccccc2s1
    i	31	8	-3	-1	-8	.	3
- COC(=O)C1CCN(C(=O)c2ccc3nc(-c4cccc(OC)c4)oc3c2)CC1
    i	-2	8	-1	1	-59	18	0
- C(=C\c1ccccc1)/CN1CCN(C(c2cccs2)c2nnnn2-c2ccc3c(c2)OCCO3)CC1 (stereo not given)
    .	.	.	-1	-10	5	8	.
- Cc1ccccc1N(C)S(=O)(=O)c1nnc(NC(=O)c2ccccc2F)s1
    i	15	.	-1	-6	4	-12	.
- CSCCC(NC(=O)c1ccco1)C(=O)NCCc1ccc(F)cc1 (stereo not given)
    .	.	.	-3	2	3	-17	.
- CCSC1=C(C#N)C(c2cccc(Br)c2)CC(=O)N1 (stereo not given)
    i	-2	8	5	0	.	-26	-9
- CN(C)CCNc1cc(-c2ccncc2)nc2ccccc12
    i	-9	40	-1	0	-11	-4	-4
- O=[N+]([O-])c1cccc(-c2ccc(C(=S)N3CCN(c4ccc(F)cc4)CC3)o2)c1
    i	.	5	1	-4	.	-32	41
- C=CCn1c(=O)/c(=C2/SC(C)=C(C)N2CC)s/c1=C1/C(=O)N(CC)C(=S)N1c1ccccc1
    i	4	22	12	-3	.	2	-8
- COc1ccc(S(=O)(=O)N2CCCC(C(=O)NCC3CCCO3)C2)cc1Cl (stereo not given)
    i	-9	-4	2	-1	-4	1	1
- Cc1ccccc1NC(=O)c1ccc(C)c(S(=O)(=O)Nc2cccnc2)c1
    .	-12	9	-2	2	-6	-17	-11
- Cc1ccc2nc(N(CCCN(C)C)C(=O)CS(=O)(=O)c3ccccc3)sc2c1
    i	-7	.	1	3	19	-2	.
- CC(C)N(C(=O)Cn1cc(S(=O)(=O)CC(=O)NC2CCCCC2)c2ccccc21)C(C)C
    i	-15	2	2	-6	3	.	4
- O=C1C=CC(=O)N1c1ccc(O)cc1
    i	20	-11	4	4	17	.	0
- Cc1nc2nc(-c3ccccc3)nn2c(C)c1C
    i	-12	.	0	1	-42	.	.
- Oc1ccc(-n2nnnc2SCc2c(F)cccc2Cl)cc1
    i	30	5	-1	-1	-9	-13	-1
- CN(CC(=O)Nc1ccccc1Cl)C(=O)COC(=O)C1=COCCO1
    i	-10	.	-2	3	i	1	.
- CCOc1ccc(CN(Cc2ccco2)C(c2cccs2)c2nnnn2C(C)(C)C)cc1 (stereo not given)
    i	7	14	-19	-25	.	-5	-7
- O=C(CCc1ccccc1)N/N=C\c1cc2c(cc1Br)OCO2
    i	14	-5	1	-3	16	-19	2
- CC1CCC/C(=C\Nc2ccc(C(=O)O)cc2)C1=O (stereo not given)
    i	-2	-11	-3	1	-51	.	5
- O=C(Cn1nc(-c2ccccc2)ccc1=O)NCC1CCCO1 (stereo not given)
    i	7	3	-2	-1	-30	-7	2
- CN(C)c1ccc(-n2cc3c(=O)n(C)c(=O)n(C)c3c2)cc1
    i	-8	5	-2	1	.	6	-14
- COc1ccc(C(=O)C(C)OC(=O)CCN2C(=O)C3CC=CCC3C2=O)cc1 (stereo not given)
    .	.	.	-2	-1	-18	-6	.
- COc1ccc(C2/C=C\CN(CC(C)C)CC(=O)N2Cc2cccc(F)c2)cc1 (stereo not given)
    .	.	.	-10	-11	-26	-29	.
- CCOC(=O)c1ccc(NS(=O)(=O)c2c(C)nc3sccn3c2=O)cc1
    i	-8	-4	-2	-7	3	-3	-2
- Cc1ccc2occ(CN3CCN(c4ccccc4)CC3)c(=O)c2c1
    i	-16	2	2	-1	-33	6	6
- Cc1c(Br)c([N+](=O)[O-])nn1C(C)C(=O)Nc1ccc2c(c1)OCO2 (stereo not given)
    i	5	-4	1	0	.	-19	0
- CCCC(=O)N1CCCC(C(=O)c2ccc(OC)c(OC)c2)C1 (stereo not given)
    i	-5	3	2	2	3	11	-10
- CCOC(=O)c1c(C)n(C)c2ccc(OC(C)C(=O)OC)cc12 (stereo not given)
    i	-15	-3	-4	-4	-23	-14	-10
- COc1ccc(-c2nnc(-c3cccs3)o2)cc1OC
    i	-10	-5	8	4	-199	-11	-7
- CC(CCc1ccccc1)NC(=O)c1ccc(C(=O)NC(C)CCc2ccccc2)cc1 (stereo not given)
    .	10	7	-6	-12	33	-21	11
- CCCCC(=O)Nc1ccc2c(c1)oc1ccccc12
    i	28	-1	5	-4	-178	.	-13
- CCc1ccc(S(=O)(=O)/N=C2\C=C(NS(=O)(=O)c3ccccc3)C(=O)c3ccccc32)cc1
    i	.	18	5	4	?	10	-7
- COC(=O)c1ccc(/C(O)=C(\C#N)c2nc3ccccc3s2)cc1
    i	18	8	-6	0	.	-11	-3
- Cc1ccc(C)c(NC(=S)N/N=C2/CCCCc3ccccc32)c1
    i	39	-7	-3	2	16	.	11
- O=C(Nc1ccc2c(c1)OCO2)C1CCN(C(=O)c2ccc(Br)cc2)CC1
    i	7	-11	8	7	-11	.	4
- COc1ccc(C(=O)COC(=O)c2ccn(C)n2)cc1
    i	-7	5	-2	0	-31	-20	1
- CCC1(c2ccc(F)cc2)NC(=O)N(CC(=O)N(CCC#N)c2ccccc2)C1=O (stereo not given)
    i	12	15	-1	-2	-15	9	-12
- COc1cccc(C2c3[nH]c4ccccc4c3C[C@H]3C(=O)N(c4ccccc4C(=O)NCCCN4CCOCC4)C(=O)N23)c1 (stereo not given in full)
    .	-5	-10	-3	2	.	-7	-1
- COc1ccc(OC)c(C2CC(=O)NC(SC)=C2C#N)c1 (stereo not given)
    i	-11	9	6	2	8	-9	-4
- CSc1sc(C(=O)NNC(C)=O)c2c1C1(CCC2)SCCS1
    i	-3	4	-4	-5	-16	.	-5
- COc1ccc(N(CC(=O)NCc2ccccc2C)S(=O)(=O)c2ccccc2[N+](=O)[O-])c(OC)c1
    .	-3	5	.	.	-24	.	1
- COC(=O)NNC1=CC(=O)CC(C)(C)C1
    i	-19	3	6	4	-21	.	1
- Cc1cccc(C)c1OCc1nnc(SCC(=O)Nc2ccc(N3CCOCC3)cc2)o1
    i	2	-2	5	8	3	.	-12
- COc1ccc(-c2cc(C(=O)N(C)CC(=O)Nc3cccc(F)c3)c3ccccc3n2)cc1
    i	12	.	1	-5	.	-10	.
- CCCNC(=O)C(Cc1cccc(Cl)c1)NC(=O)c1ccccc1 (stereo not given)
    .	-2	.	-1	1	-21	-9	.
- COc1ccccc1NC(=O)Nc1ccc(-n2ccc(C(F)(F)F)n2)cc1
    i	83*	-1	4	-7	-46	-11	-8

Assay outcomes deposited in PubChem by several laboratories.
